NPR1 antag: blocks ANP-stimulated signaling of human Npr1 receptor; P16066; HEK293 hNpr1 GloSensor cGMP, ANP-stimulated luminescence; Potency, µM (titrated, usually from 46.3 µM), for the others: at the top dose activity change, negative = inhibition, hits mostly inhibitors; actives 1.6% (n = 76,000); AID 1347048; active = well fitted inhibition curve with a large enough effect; inconclusive = small, poorly fitted or top-dose-only effect; inactive = no such curve, though single readings can be large or run the other way;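 note: nearly all actives have a fitted effect of over 60% in size; nearly all hits also lower the signal before the agonist is added; a reference antagonist and vehicle were the controls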
Target sequence (P16066 whole entry, looked up): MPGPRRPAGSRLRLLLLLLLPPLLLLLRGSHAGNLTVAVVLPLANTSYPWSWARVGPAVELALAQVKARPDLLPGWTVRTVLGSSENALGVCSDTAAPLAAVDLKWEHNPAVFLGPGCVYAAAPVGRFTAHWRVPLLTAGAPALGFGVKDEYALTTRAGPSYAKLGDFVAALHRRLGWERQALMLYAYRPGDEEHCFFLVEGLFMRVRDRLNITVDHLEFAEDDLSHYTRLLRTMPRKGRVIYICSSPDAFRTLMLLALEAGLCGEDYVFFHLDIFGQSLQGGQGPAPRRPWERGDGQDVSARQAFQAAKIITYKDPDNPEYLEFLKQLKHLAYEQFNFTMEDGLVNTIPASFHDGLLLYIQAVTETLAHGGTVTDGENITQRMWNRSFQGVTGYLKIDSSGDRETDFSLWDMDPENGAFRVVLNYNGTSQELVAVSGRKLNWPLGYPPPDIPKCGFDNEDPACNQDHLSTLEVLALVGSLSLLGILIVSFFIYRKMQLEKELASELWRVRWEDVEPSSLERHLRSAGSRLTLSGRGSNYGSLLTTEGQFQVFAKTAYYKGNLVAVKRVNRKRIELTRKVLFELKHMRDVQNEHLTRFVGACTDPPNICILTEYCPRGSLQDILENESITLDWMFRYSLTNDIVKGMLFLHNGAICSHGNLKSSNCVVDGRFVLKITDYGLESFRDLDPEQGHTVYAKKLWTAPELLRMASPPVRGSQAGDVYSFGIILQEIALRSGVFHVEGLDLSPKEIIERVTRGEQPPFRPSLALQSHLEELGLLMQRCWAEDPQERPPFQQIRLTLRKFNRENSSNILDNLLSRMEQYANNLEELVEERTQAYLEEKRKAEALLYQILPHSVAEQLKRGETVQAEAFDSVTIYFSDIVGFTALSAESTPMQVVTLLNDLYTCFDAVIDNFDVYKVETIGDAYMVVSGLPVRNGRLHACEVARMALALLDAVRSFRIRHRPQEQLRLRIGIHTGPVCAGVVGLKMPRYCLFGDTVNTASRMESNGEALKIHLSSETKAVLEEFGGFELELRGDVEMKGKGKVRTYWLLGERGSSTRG
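HEK293 cells stably expressing human Npr1 and cGMP GloSensor pGS-40F, loaded 2 h with 2% GloSensor reagent, given compound 30 min at room temperature. Luminescence read before and 20 min after 0.1 nM hNppA.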
* marks the source's active call; other numbers are inactive results; ? = inconclusive; [ ] = remark or other dose. % is set by controls: 0 for no effect and ±100 for the full control effect; potency is the fitted concentration of half-maximal effect. An excerpt; count on the stated rates, not on these rows.

SMILES	NPR1 antag
O=C(CC1CCCN(c2cnn(CC3CC3)c(=O)c2)C1)NC1CC1 (configuration not stated)	4%
O=C(NCC(F)F)C1CCCN(c2nc3ncccc3o2)C1 (configuration not stated)	14%[70.6 µM]
Cc1ccc(C(=O)N(CC2CCN(Cc3ccccc3F)CC2)CC2CCCO2)s1 (configuration not stated)	10%
Cc1ccncc1C(=O)N1CCC2(CC1)c1[nH]c3ccccc3c1CCN2C	1%
Cc1ccccc1NC(=O)Cn1c(-c2ccc(F)cc2)nc(C)c(CCO)c1=O	-11%
Cc1nccn1CC(=O)NCC1CCN(c2cc(-c3ccc(Cl)cc3)[nH]n2)CC1	1%
CC(C)CN1C(=O)COC[C@@H]1[C@H](O)c1ccc(NC(=O)CCc2ccccc2)cc1	-8%[70.6 µM]
O=C(Cn1nc2n(c1=O)CCCC2)Nc1ccc(F)c(Cl)c1	2%
CC1=C[C@@H](CN(C)CCO)[C@H](C(C)C)C[C@H]1Cc1nnc(-c2ccccc2)o1	-2%[70.6 µM]
O=C(NCCn1cccc1-c1nc(-c2ccc3c(c2)OCO3)no1)C1(c2ccccc2)CC1	-14%
COCCN1C(=O)CCc2cc(NC(=O)c3cncc(Br)c3)ccc21	-10%
O=C(NCc1ccco1)C1CC(c2ccccc2)CN(C(=O)C2CCCC2)C1 (configuration not stated)	0%
Cc1ncoc1C(=O)N1C[C@@H](COc2ccccc2)[C@H](C(N)=O)C1	3%
COC[C@@H]1CN(S(=O)(=O)c2ccc(C)c(F)c2)C[C@H]1C(N)=O	-2%
CNC(=O)[C@@H](C1CC1)N1CCC[C@H]1C(=O)N1CCCCCC1	-2%[70.6 µM]
CCOC(=O)c1ccccc1NC(=O)CN1C(=O)NC(c2ccc(Cl)cc2)C2=C1COC2=O (configuration not stated)	-12%
COc1ccc(CN2Cc3cc(NC(=O)Cc4ccccc4)ccc3OC(C)C2=O)cc1 (configuration not stated)	-17%
O=C1CC(c2ccccc2)N(Cc2ccncc2)CCCN(C(=O)c2ccco2)CCN1 (configuration not stated)	6%
COc1cccc(C(=O)NC(C(=O)N2CCCCC2)C2CCN(C(=O)c3ccc(Cl)cc3)CC2)c1 (configuration not stated)	-12%
O=C1[C@@H]2C[C@@H](CN2C(=O)C2CCOCC2)Oc2ccccc2N1Cc1ccccn1	1%[70.6 µM]
O=C(c1ccccn1)N1CCCC(c2noc(COc3ccccc3)n2)C1 (configuration not stated)	-2%
COC1CCOC2(CCN(C(=O)c3cccnc3)CC2)C1 (configuration not stated)	9%
O=C(c1cccs1)N1CCC2(CC1)N=C(c1ccc(Cl)cc1)NO2	?
Cc1ccc(CNC(=O)N2CCCC(Cn3cnc4cccnc43)C2)cc1 (configuration not stated)	1%
CO[C@H]1[C@H](NC(=O)c2cc3ccccc3n2C)c2ccccc2C12CCNCC2	3%
CCN1c2cc(C(=O)Nc3cccc(OC(F)(F)F)c3)ccc2C(=O)N2CCCCCC21 (configuration not stated)	-6%
CS(=O)(=O)N1C[C@@H]2OCC(=O)N(CC3CC3)[C@@H]2C1	2%[70.6 µM]
COc1ccc(CNC(=O)NC2CCc3nn(CC4CC4)c(=O)n3CC2)cc1 (configuration not stated)	-2%
Cc1ccc(-c2noc(-c3nnn4c3COC(c3ccc(Cl)cc3)C4)n2)cc1 (configuration not stated)	0%
Cc1ccc(NC(=O)Cn2c(C)cc3nc4n(c(=O)c32)CCCCC4)cc1	-13%
O=C(c1ccc(F)cc1F)N1CCC(n2cnnc2C2CC2)CC1	-2%
O=C(NC1CCCCCC1)c1ccc(Cn2ccn3nc4c(c3c2=O)CCCC4)cc1	-17%
Cn1cnc(S(=O)(=O)N2CCC(CC(=O)NCc3ccccc3)C2)c1 (configuration not stated)	-13%
COCCNC(=O)[C@@H]1C[C@H](Oc2ccccc2)CN1C(=O)c1ccc(OC)c(F)c1	2%
Cc1noc(-c2cccn3c(CNC(=O)CCc4ccccc4)nnc23)n1	1%
CC(C)c1ccc(CN2CCC3OCCN(c4ccccc4)C(=O)C3C2)cc1 (configuration not stated)	-17%[70.6 µM]
CNC(=O)CCn1ncc2cc(OCc3ccccc3-c3ccccc3COC)ccc21	-7%[70.6 µM]
CCOC(=O)c1cn(C2CN(C(=O)Nc3ccc(F)cc3F)C2)nn1	1%
N#Cc1ccc(NC2CC(c3cc(N4CCC(O)C4)ncn3)C2)nc1 (configuration not stated)	1%
Cc1nccnc1N1CCC(N2CCCC(C(=O)NCCc3ccccc3)C2)CC1 (configuration not stated)	3%
CCn1cnnc1CC1CCN(C(=O)c2cccc(C)c2)C1 (configuration not stated)	-1%
COCc1cc(=O)n(CC(=O)Nc2cccc(Cl)c2C)c(N2CCOCC2)n1	1%
CCCNC(=O)C(C)(C)Oc1nn(Cc2ccccc2)c2ccc(COC)cc12	-5%[70.6 µM]
CCCCS(=O)(=O)N1CCC(n2cc(CN3CCCC3)nn2)CC1	5%
COc1cccc(-c2cc3c(ccn3C(C)C)c(C(=O)NCc3c(C)cc(C)[nH]c3=O)n2)c1	-1%
CN(C)[C@@H]1[C@@H](NS(=O)(=O)c2cc(F)c(F)cc2F)[C@H]2CCO[C@H]21	-2%
CCCNc1ncc(CN2CCCC(c3ccc(C(=O)O)cc3)C2)cn1 (configuration not stated)	3%
Cc1noc2c(NC3CCC(O)CC3)cc(-c3ccc(F)cc3)nc12 (configuration not stated)	3%[70.6 µM]
Cc1ncccc1C(=O)N[C@@H]1CN(Cc2ccccc2)C[C@H]1CN(C)C	5%
Cc1n[nH]c(C)c1CNC(=O)C1Cn2cccc2C(=O)N1Cc1ccccc1 (configuration not stated)	-10%
Cc1nc(CCNC(=O)C2CC2)no1	3%
Fc1ccc(Cc2nc3nccc(-c4ccsc4)n3n2)cc1	6%
CC(=O)c1cccc(NC(=O)Cn2c(-c3ccc(F)cc3)nc(C)c(CCO)c2=O)c1	-6%
CC(=O)N1CCc2ccc(C(=O)N3CCC(C)CC3)cc21	6%
CCc1noc(-c2cn(C3CCN(C(=O)c4cc(OC)cc(OC)c4)CC3)nn2)n1	0%
COCC(=O)NC[C@H]1O[C@@H](CC(=O)NCc2ccc(F)cc2)[C@H](O)[C@@H]1O	3%[70.6 µM]
Cn1nc(C(=O)NC2CCN(C(=O)N3CC4CC(C3)[C@H]3CCCC(=O)N3C4)CC2)c2ccccc21 (some centres not stated)	1%
CC(C)C1c2nccn2CCCN1C(=O)CN1CCCC1=O (configuration not stated)	-2%
CCCCC(=O)N1CCC(OC2CCN(S(C)(=O)=O)CC2)CC1	-16%
O=C(Nc1ccccc1)Nc1ccc(=O)n2c1[C@@H]1C[C@@H](CN(S(=O)(=O)c3ccccc3)C1)C2	-7%

A draw from above in order of molar mass, smallest number first:
SMILES	NPR1 antag
Cc1nc(CCNC(=O)C2CC2)no1	3%
O=C(NCC(F)F)C1CCCN(c2nc3ncccc3o2)C1 (configuration not stated)	14%[70.6 µM]
O=C(c1ccc(F)cc1F)N1CCC(n2cnnc2C2CC2)CC1	-2%
CN(C)[C@@H]1[C@@H](NS(=O)(=O)c2cc(F)c(F)cc2F)[C@H]2CCO[C@H]21	-2%
CCCNc1ncc(CN2CCCC(c3ccc(C(=O)O)cc3)C2)cn1 (configuration not stated)	3%
O=C(c1cccs1)N1CCC2(CC1)N=C(c1ccc(Cl)cc1)NO2	?
COCC(=O)NC[C@H]1O[C@@H](CC(=O)NCc2ccc(F)cc2)[C@H](O)[C@@H]1O	3%[70.6 µM]
Cc1ccccc1NC(=O)Cn1c(-c2ccc(F)cc2)nc(C)c(CCO)c1=O	-11%
COCCN1C(=O)CCc2cc(NC(=O)c3cncc(Br)c3)ccc21	-10%
COCc1cc(=O)n(CC(=O)Nc2cccc(Cl)c2C)c(N2CCOCC2)n1	1%
COCCNC(=O)[C@@H]1C[C@H](Oc2ccccc2)CN1C(=O)c1ccc(OC)c(F)c1	2%
CNC(=O)CCn1ncc2cc(OCc3ccccc3-c3ccccc3COC)ccc21	-7%[70.6 µM]
Cc1ccc(C(=O)N(CC2CCN(Cc3ccccc3F)CC2)CC2CCCO2)s1 (configuration not stated)	10%
O=C1CC(c2ccccc2)N(Cc2ccncc2)CCCN(C(=O)c2ccco2)CCN1 (configuration not stated)	6%
CCN1c2cc(C(=O)Nc3cccc(OC(F)(F)F)c3)ccc2C(=O)N2CCCCCC21 (configuration not stated)	-6%
O=C(Nc1ccccc1)Nc1ccc(=O)n2c1[C@@H]1C[C@@H](CN(S(=O)(=O)c3ccccc3)C1)C2	-7%
CCOC(=O)c1ccccc1NC(=O)CN1C(=O)NC(c2ccc(Cl)cc2)C2=C1COC2=O (configuration not stated)	-12%

(list continues)
SMILES	NPR1 antag
Cc1ccc(CNC(=O)N2CCCOCCNC(=O)[C@@H]3CCC[C@@H]32)cc1	-2%
COc1cc(=O)n2c(c1C(=O)Nc1cc(F)cc(F)c1)CCCC2	2%
CC1(C(=O)N2CCOCC2)CN(Cc2ccccc2)Cc2ccc(Nc3ccccc3)nc21 (configuration not stated)	-11%
COc1cc(-c2onc(C)c2C(=O)NCC2CCCO2)cc(OC)c1OC (configuration not stated)	-16%
O=C(NC1CCCCC1)C1CN(C(=O)c2ccc(Cl)s2)CC12CCOCC2 (configuration not stated)	0%
CCc1ccc(C(=O)N2CCC3(CC2)C(=O)N(CC(=O)N(C)C)CN3c2ccccc2)cc1	-8%
Cc1ccc(CN2C(=O)COC[C@H]2C(=O)Nc2cc(F)cc(F)c2)cc1	-10%
O=C(Nc1ccccc1)O[C@@H]1CO[C@H]2[C@@H]1OC[C@@H]2NCc1ccccc1	0%[70.6 µM]
Cc1ccc(CCNC(=O)C2CCN(C(=O)c3nnn4c3COC(c3ccc(C)cc3)C4)CC2)cc1 (configuration not stated)	1%
Cc1cnc(C(=O)N[C@@H]2CCC[C@@H]2C(=O)Nc2ccc3c(c2)OCCO3)cn1	2%
O=C(c1ccc(Cl)nc1)N1CCC(c2nn(-c3ccccc3)c(=O)[nH]2)CC1	1%
COC(=O)c1ccc2c(c1)nc1n2[C@@H](CNC2CCOCC2)COC1	-6%[70.6 µM]
CCc1nnc([C@@H]2CC(F)(F)CN2C(=O)CCn2nc(C)cc2C)o1	5%
COc1cc(F)ccc1-c1nccc2c(=O)cc(-c3cnn(C)c3)oc12	-1%[70.6 µM]
COc1cc(NC(=O)N[C@H]2CO[C@H]3[C@@H]2OC[C@H]3OC(=O)Nc2cccc(C(C)=O)c2)cc(OC)c1	-3%
O=C(Nc1ccccc1)c1cc2n(n1)CC(c1ccc(Br)cc1)OC2 (configuration not stated)	18µM*
COC1CCC(C(=O)N2CC(CNc3ccccc3)C3(C2)CN(c2ccccc2)C3)CC1 (configuration not stated)	-5%[70.6 µM]
Cc1ccc(NC(=O)O[C@@H]2CC[C@]3(C)C(CC[C@@H](O)[C@H]3CC(=O)N3CCC[C@H]3CO)[C@]2(C)CO)cc1 (some centres not stated)	-2%
COc1ccccc1CC(=O)N1CCCc2ncc(C(=O)N3CCCC[C@@H]3Cc3ccccc3)cc21	0%
O=C(Cc1ccc(F)cc1)NC1CCN(c2cc(-c3ccccc3)[nH]n2)CC1	-28%
Cc1ccc2nc3n(c2c1)[C@@H](CNC(=O)c1ccncc1)COC3	4%[70.6 µM]
Cc1cnn(CCC(=O)N2CC(F)(F)C[C@H]2c2nc(C)no2)c1	1%
CNC(=O)[C@@H](Cc1ccccc1)N1CCC[C@H]1C(=O)NCc1ccccn1	-3%[70.6 µM]
OCC1(Cc2cccc(Cl)c2)CCCN(Cc2nc(-c3ccc(F)cc3)cs2)C1 (configuration not stated)	-23%
COc1ccc(-c2cc(-c3ccc(F)cc3OC)cn3cncc23)cc1	-5%[70.6 µM]
Cn1c(Cn2cccn2)nnc1C1CCCN(C(=O)c2ccc(=O)[nH]c2)C1 (configuration not stated)	4%
COc1ccc(CN2C(=Nc3ccccc3)S[C@H]3[C@@H]2[C@@H](O)[C@H](O)C[C@@H]3C(N)=O)cc1	4%[70.6 µM]
Cc1ccc(C(=O)N2CCC(n3cc(-c4nc(C(C)C)no4)nn3)C2)cc1C (configuration not stated)	-4%
CCCC1=Nc2cc(C(=O)NCCc3ccc(C)cc3)ccc2Sc2ccc(C)cc21	-3%
Cc1oc2c(c1C(=O)NCCN(C)C)CN(C(=O)c1ccncc1)CC2	4%
COc1ccccc1C(=O)NC[C@H]1COCc2nc3cc(C)ccc3n21	-2%[70.6 µM]
CNc1nccc(N2CCC(CC(=O)NCc3cc(OC)cc(OC)c3)CC2)n1	3%
Cc1noc([C@@H]2CC(F)(F)CN2C(=O)COc2ccccc2)n1	1%
CCCNC(=O)N1CC[C@@H](CC(=O)O)[C@@H](CC2=NCCc3cc(F)ccc32)C1	-6%[70.6 µM]
CCCNC(=O)N1CCC2(CCC2NC(=O)COC)CC1 (configuration not stated)	2%
O=C(c1nnc(CNCc2cnccn2)n1-c1ccccc1)N1CCC[C@@H]1C(c1ccccc1)c1ccccc1	-15%
CCNC(=O)NC[C@@H]1C=C(C)[C@H](Cc2nnc(-c3ccccc3F)o2)C[C@H]1C(C)C	-28%[70.6 µM]
O=C(Nc1cccc(C(F)(F)F)c1)O[C@@H]1CO[C@H]2[C@@H]1OC[C@@H]2NS(=O)(=O)c1cccs1	-7%
CC(C)NC(=O)c1ccc2c(c1)C1(CCN(CC3CC3)C1)CN2Cc1ccccc1 (configuration not stated)	1%[70.6 µM]
CCCNC(=O)N1CCCCC1c1n[nH]c(C)n1 (configuration not stated)	5%
O=C1Nc2ccccc2OCC12CCN(CC1CC1)CC2	6%[70.6 µM]
CCOc1ccccc1C(=O)N1CC2CC(C1)[C@H]1CCCC(=O)N1C2 (some centres not stated)	5%
O=C(c1ccccc1Cl)N1CCN(c2cc(-c3ccc(Cl)cc3)[nH]n2)CC1	7.9µM*
CC[C@H](C)[C@H](N)C(=O)N1CCC(Cn2cc(C3CCCC3)nn2)CC1	-3%
O=C(CCC1CCN(c2cc(NC3CC3)ncn2)CC1)NCc1ccc(F)cc1F	?
